TRPV1 potentiator: HTS Assay for Compounds that Act as Potentiators of the Vanilloid Receptor 1; Transient receptor potential cation channel subfamily V member 1 (Homo sapiens), Q8NER1; TRPV1-expressing cells, Fluo-8 calcium influx, capsaicin EC20 potentiation; host cell line not named in the record; control for the full effect not named in the record; potentiation, % at 8.33 µM; actives 0.02% (n = 320,000); active means potentiation above 80%; inconclusive means 30% to 80%; inactive means below 30%; note: 0% is about no effect
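Cells expressing TRPV1 were dye-loaded with Fluo-8 and read kinetically: 10 s baseline, 3 min after compound (agonist portion), then 2 min after EC20 capsaicin (allosteric enhancer portion). Calcium-bound dye fluorescence at 480/520 nm.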
gsp ag: qHTS for Agonist of gsp, the Etiologic Mutation Responsible for Fibrous Dysplasia/McCune-Albright Syndrome: qHTS. Potency, µM (top dose mostly 76.9 µM), for the others: top-dose activation (cAMP increase), actives largely listed as activators. AID 624287, 2012. actives 0.13% (n = 340,000). gsp mutant cells, cAMP HTRF, 30 min; control for the full effect not named in the record; active = well fitted activation curve with a large enough effect; inconclusive = small, poorly fitted or top-dose-only effect, or another doubt; inactive = no such curve, though single readings can be large or run the other way; cell line not stated here;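 note: phosphodiesterase inhibitor Ro 20-1724 added with compounds to block cAMP breakdown; potency is the fitted concentration of half-maximal effect; nearly all actives have a fitted effect of over 60% in size; about a fifth of the inactives were tested at one dose only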
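Cells stably selected in G418 were plated at 2000/well, grown 16-24 hr, then given compounds in DMSO with the PDE inhibitor […] (300 uM solution added) for 30 min at 37C; cAMP was read by HTRF.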
gsp antagonist: qHTS for Antagonists of gsp, the Etiologic Mutation Responsible for Fibrous Dysplasia/McCune-Albright Syndrome: qHTS. gsp-mutant cells, cAMP HTRF, 30 min; control for the full effect not named in the record. AID 624288, 2012. actives 0.4% (n = 340,000). Potency, µM (doses to about 76.9 µM), without a hit: at the top dose activity change, negative = inhibition, hits mostly inhibitors; active = falling curve of any shape with a large fitted effect; inconclusive = falling curve, mostly with a smaller effect; inactive = flat or rising curve; cell line not stated here;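 note: intracellular cAMP measured with PDE inhibitor Ro 20-1724 present during compound exposure; potency is the fitted concentration of half-maximal effect; % is set by controls: 0 for no effect and ±100 for the full control effect; nearly all actives have a fitted effect of over 65% in size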
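Measurement of cellular cAMP by homogeneous time-resolved fluorescence following a 30 min compound exposure at 37C. The PDE inhibitor […] was present throughout; the assay buffer was DPBS with 0.05% BSA and 0.005% Tween 20.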
Sfp inh: qHTS Assay for Inhibitors of Bacillus subtilis Sfp phosphopantetheinyl transferase (PPTase); 4'-phosphopantetheinyl transferase ffp (Bacillus subtilis), Q9F4F7; Biochemical Sfp PPTase activity, qHTS; Potency, µM, for inactives: max response, negative = inhibition, most hits filed as inhibitors; actives 3.5% (n = 310,000); active = well fitted inhibition curve with a large enough effect; inconclusive = small, poorly fitted or top-dose-only effect, or another doubt; inactive = no such curve, though single readings can be large or run the other way;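 note: the enzyme is Sfp with the accession as filed and its product quenches rhodamine fluorescence; potency is the fitted concentration of half-maximal effect; 0% = enzyme reaction without inhibitor and -100% = no enzyme wells; top concentration of the series not given in the record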
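Buffer: 50 mM Hepes-Na pH 7.6, 10 mM MgCl2, 0.01% Nonidet P-40, 0.01% BSA. Enzyme 15 nM, pre-exposed to compound 15 min; substrates then added and fluorescence change tracked over 30 min.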
Menin-MLL FL inh: qHTS Assay for Inhibitors Targeting the Menin-MLL Interaction in MLL Related Leukemias: Competition With Fluorescein Labeled MLL-derived Peptide | Fluorescence polarization, fluorescein-MLL peptide displacement from menin | FP activity change, % at 61.4 µM | 290,000 tested, under 10 active; inconclusive = falling polarisation curve, or a change in total fluorescence; inactive = total fluorescence flat and polarisation flat or rising; no compound was filed as active; the % refers to the polarisation; negative = inhibition;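 note: % of control where 0% means no effect; inhibitors lower the polarisation; unlabelled MLL peptide was the positive control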
ClpP mod: qHTS Assay for Activators of ClpP | AID 651965, 2013 | actives 1.9% (n = 340,000) | ATP-dependent Clp protease proteolytic subunit (Bacillus subtilis (strain 168)), P80244 | purified B. subtilis ClpP, FRET peptide cleavage, 20 min | Potency, µM (doses to about 57.5 µM), without a hit: top-dose activity change, negative = active; active = well fitted falling curve with a large enough effect; inconclusive = small, poorly fitted or top-dose-only effect; inactive = no such curve, though single readings can be large or run the other way; note: potency is the fitted concentration of half-maximal effect; the source files actives as falling curves though it sought activators and does not explain the sign; nearly all actives have a fitted effect of over 65% in size; many hits overshoot -100%
Target sequence (P80244 whole entry, looked up): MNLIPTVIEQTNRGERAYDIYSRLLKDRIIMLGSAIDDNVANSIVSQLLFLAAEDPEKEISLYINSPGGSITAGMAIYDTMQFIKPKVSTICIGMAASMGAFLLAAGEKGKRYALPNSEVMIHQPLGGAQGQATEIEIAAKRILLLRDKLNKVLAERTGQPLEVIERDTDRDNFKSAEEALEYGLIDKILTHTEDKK
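FRET quenching reversal measured ClpP activation: 10 microg/mL B. subtilis ClpP at pH 8 with the FRET-FV decapeptide, read at 430 nm after 320 nm excitation. The 20-min minus 0-min signal was scaled between DMSO/no-enzyme wells and ADEP (5.8 microM final).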
D2 PAM: Beta-Arrestin HTS for Positive Allosteric Modulators of the Human D2 Dopamine Receptor: Potentiators | D(2) dopamine receptor (Homo sapiens), P14416 | DiscoveRx D2 beta-arrestin cells, luminescence, 90 min; 100% = 57 uM dopamine signal | actives 0.23% (n = 360,000) | potentiation, % (no concentration beside the values); active = potentiation of 50% or more; inconclusive = 30% to 50%; inactive = 30% or less;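 note: compound concentration not given in the record; tested on top of an EC20 dose of dopamine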
Target sequence (P14416 whole entry, looked up): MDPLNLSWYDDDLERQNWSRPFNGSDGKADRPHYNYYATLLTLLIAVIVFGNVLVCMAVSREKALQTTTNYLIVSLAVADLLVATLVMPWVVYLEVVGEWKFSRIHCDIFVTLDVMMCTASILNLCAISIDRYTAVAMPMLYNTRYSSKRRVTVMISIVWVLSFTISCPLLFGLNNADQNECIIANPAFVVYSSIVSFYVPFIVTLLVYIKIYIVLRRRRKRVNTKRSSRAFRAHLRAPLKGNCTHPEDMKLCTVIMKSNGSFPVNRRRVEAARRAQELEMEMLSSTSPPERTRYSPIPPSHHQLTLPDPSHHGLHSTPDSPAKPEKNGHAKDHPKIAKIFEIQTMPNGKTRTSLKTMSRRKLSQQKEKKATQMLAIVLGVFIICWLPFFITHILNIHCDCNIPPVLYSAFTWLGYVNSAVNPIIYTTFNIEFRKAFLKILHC
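PathHunter D2 cells, attached overnight at 37 deg C, received compound in DMSO plus dopamine at EC20 (50 nM final) for 90 min at 37 deg C. Beta-arrestin recruitment was read as luminescence after 1 h with detection reagent at ambient temperature.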
* marks the source's active call; other numbers are inactive results; ? = inconclusive; . = no result given; & = joins results of further samples; [ ] = another dose, or the depositor's remark.

SMILES	TRPV1 potentiator	gsp ag	gsp antagonist	Sfp inh	Menin-MLL FL inh	ClpP mod	D2 PAM
Cc1cccnc1NC(=O)c1ccco1	1	-4%	-2%	.	.	-2.5%	17
Cc1ccc(S(=O)(=O)N2CCC(=O)N(C(COCc3ccc(Cl)c(Cl)c3)Cc3ccccc3)CC2)cc1 (stereo unspecified)	3	14%	-8%	31%	2.5	-3.2%	-8
Cc1cccc(NC(=O)CCC(=O)N/N=C/c2cccnc2)c1	-13	-22%	3%	21%	.	-2.8%	-19
O=C(CCCN1C(=O)c2ccccc2C1=O)NCCC1=CCCCC1	-21	?	5%	2%	-0.9	-1.8%	-8
O=C(Nc1ccccc1[N+](=O)[O-])c1cccnc1Cl	5	-80%[inhibitor]	9%	6%	4.4	0.9%	17
Cc1[nH]c2c(Cl)cccc2c1CCNC(=O)C1CCCCC1C(=O)OCC(F)(F)F (stereo unspecified)	-15	0%[15.4 µM]	?	23%	1.9	0.5%	-7
CCCc1nn(C(=O)c2ccccc2)c2c1C(=O)CC(C)(C)C2	18	-33%	-1%	0%	-2.2	-0.1%	-3
CN(c1ccccc1C(=O)O)S(=O)(=O)c1ccc2c3c(cccc13)C(=O)N2	5	5%	-3%	-9%	3.4	-7.0%	17
COCc1nc2ccccc2n1CCOc1ccccc1OC	-20	-31%[inhibitor]	-29%	-11%	-1.5	0.6%	2
COc1ccc(NC(=O)N2CCc3ccccc32)cc1	-20	-21%	-10%	19%	-1.2	-1.8%	-2
COC(=O)c1nn(-c2ccc(OC)cc2)ccc1=O	9	5%	-4%	4%	3.6	-6.5%	-12
COc1cc(C(=O)NCCC(=O)NCCCN2CCCCC2)cc(OC)c1OC	14	27%	4%	10%	0.1	-6.3%	-9
CCOc1ccccc1NC1=CC(=O)CC(c2ccccc2)C1 (stereo unspecified)	19	-14%	-6%	-10%	5.6	-11%	2
Cc1ccc(N(CC(=O)NC2CCCC2)C(=O)CCC(=O)Nc2nccs2)c(C)c1	-15	-4%[15.4 µM]	.	12%	-0.1	.	-5
O=C(NCCCN1CCC(Cc2ccccc2)CC1)C1CCN(S(=O)(=O)N2CCOCC2)CC1	0	11%	-5%	34%[activator]	1.4	-0.3%	-43
COc1cccc(NC(=O)CSc2nnc(C)s2)c1	?	24%	1%	18%	0.8	-0.4%	-4
Nc1nnc(SCc2ccc(F)cc2)s1	-5	-36%[inhibitor]	12%	16%	2.8	-0.2%	1
C/C=C/Cn1c(SCc2ccc(C)cc2)nc2c1c(=O)[nH]c(=O)n2C	10	-1%	12%	-18%	-0.8	-0.2%	-9
CCC(=O)c1ccc(OCC(=O)N2CCCC2)c(OC)c1	-3	-31%	3%	7%	0.0	-1.0%	4
O=c1ccc(Cl)cn1Cc1ccccc1F	2	?	4%	16%	1.5	-15%	23
CCOC(=O)c1c(NC(=O)c2cc(CC(C)C)on2)sc(C(C)=O)c1C	18	-1%	2%	-12%	2.5	-6.7%&0.1%	-2
CN(C)C1(CNC(=O)C2CCC(=O)N(CCc3ccc(Cl)cc3)C2)CCCCC1 (stereo unspecified)	3	-3%	8%	4%	.	-0.7%	-2
CN(Cc1ccccn1)C(=O)C1CCC(=O)N(CCc2ccc(Cl)cc2)C1 (stereo unspecified)	1	-25%	4%	6%	.	-0.3%	-9
Cc1ccc(C(=O)NC2CCN(S(=O)(=O)c3ccccc3)CC2)cc1	-15	-11%[15.4 µM]	19%	18%	0.9	.	-2
Cn1c(=O)c2c(nc(CN3CCN(c4cccc(Cl)c4)CC3)n2CCc2ccccc2)n(C)c1=O	.	-12%	-8%	.	.	1.7%	-32
COc1cccc(-c2cc(C(=O)N3CCN(S(=O)(=O)c4ccc(Br)cc4)CC3)[nH]n2)c1	6	2%	-15%	11%	.	0.3%	-7
Cc1ccc(-n2ncc(C(=O)Nc3cc(Cl)ccc3C)c2C2CCNCC2)cc1C	4	-49%[inhibitor]	15%	12%	-0.9	-1.1%	-5
CCc1ccc(NC(=S)N2CCN(C)CC2)cc1	9	21%	4%	-2%	-1.0	0.5%	-13
O=C(CSc1ncnc2c1cnn2-c1ccccc1)NCC1CCCO1 (stereo unspecified)	-9	18%	-6%	.	.	-1.9%	23
COc1cc(/C(C#N)=C/c2cccc3ccccc23)c([N+](=O)[O-])cc1OC	6	-25%	-5%	-2%	3.1	-3.2%	-9
CCCSc1nnc2n(C)c(=O)c3c4c(sc3n12)CCC4	-24	-21%	0%	5%	-0.9	-2.0%	11
O=C1CCCN1C(=O)CSc1ncnc2sccc12	-3	4%[15.4 µM]	4%	.	.	-2.6%	-1
O=c1c(Cc2ccc(Cl)cc2Cl)c(O)ccn1CCCN1CCOCC1	12	-4%	7%	17%	1.9	0.4%	-12
Cc1ccsc1/C=N/NC(=O)CNC(=O)c1c(F)cccc1Cl	12	32%	19%	16%	1.3	0.8%	-16
COc1ccc(NC(=S)N2CCNC(=O)C2CC(=O)Nc2ccc(C)cc2)cc1 (stereo unspecified)	13	1%	6%	1%	-0.3	-0.6%	-4
CCn1c(CNC(=O)COc2ccc(C(C)C)cc2)nnc1SCC(=O)Nc1ccccc1F	-3	-4%	-16%	-14%	2.4	-0.9%	23
O=C(COC(=O)c1cc(=O)[nH]c2ccccc12)c1cccs1	-3	24%[15.4 µM]	14%	24%	0.0	.	-3
Cc1cc(C)c(C)c(S(=O)(=O)Nc2ccc(O)cc2)c1C	-3	-12%	-2%	19%	-0.4	1.0%	15
O=C(O)c1ccc(N2CC3CC(C2)c2cccc(=O)n2C3)c(NC(=S)Nc2ccc(Cl)cc2Cl)c1 (stereo unspecified)	-1	20%	-2%	50µM*	-7.5	.	-3
S=C(NCCc1ccccn1)Nc1ccc(Cl)c(Cl)c1	-2	4%	-2%	-5%	-0.2	-1.5%	-8

Some values from the results shown:
COc1cccc(-c2cc(C(=O)N3CCN(S(=O)(=O)c4ccc(Br)cc4)CC3)[nH]n2)c1 in TRPV1 potentiator is entered as 6
Cc1cc(C)c(C)c(S(=O)(=O)Nc2ccc(O)cc2)c1C in Sfp inh is entered as 19%

Sfp inh, entries above that show a hit
SMILES | gsp ag | gsp antagonist | Sfp inh | Menin-MLL FL inh | D2 PAM
O=C(O)c1ccc(N2CC3CC(C2)c2cccc(=O)n2C3)c(NC(=S)Nc2ccc(Cl)cc2Cl)c1 (stereo unspecified) | 20% | -2% | 50µM* | -7.5 | -3

Further results:
SMILES	TRPV1 potentiator	gsp ag	gsp antagonist	Sfp inh	Menin-MLL FL inh	ClpP mod	D2 PAM
O=C(COC(=O)c1c(Cl)cccc1Cl)NCC1CCCO1 (stereo unspecified)	.	-1%	-4%	.	.	-3.4%	-9
COC(=O)c1cc(OC)c(OC)cc1NC(=O)c1ccccc1	-1	28%	6%	11%	3.0	-6.2%	4
C[C@@H]1CN([C@H](C)CO)C(=O)CCCn2cc(nn2)CO[C@H]1CN(C)C(=O)Cc1ccccc1	.	-4%	.	.	.	-3.0%	-19
NC(=O)[C@@H]1CCCN1C(=O)c1ccc2oc(CCc3ccccc3)nc2c1	2	-24%	-12%	3%	.	-1.9%	-5
Cc1ccc(C(=O)N/C(=C\c2cccs2)C(=O)NCc2ccncc2)cc1	6	6%	-6%	7%	3.2	-0.6%	-6
COc1ccc(NC(=O)c2coc(C)c2)cc1	-11	?	8%	14%	-2.5	.	-4
O=C(c1ccccc1)N1CCN(C(=S)NCCc2ccccc2)CC1	1	-3%	-4%	-3%	9.3	-2.2%	-9
OCCN1CCN(c2ncnc3scc(-c4ccc(F)cc4)c23)CC1	5	11%	2%	17%	1.0	-1.9%	-4
CCOC(=O)c1c(OCC)[nH]c2c1cc(O)c1ccccc12	3	?	-20%	?	-2.4	22µM*	-4
CCOC(=O)c1ccccc1NC(=O)/C(C)=C/C(=O)O	6	?	4%	16%	3.1	?	-9
COc1ccccc1NC(=O)NNC(=O)c1cc2ccccc2cc1O	9	29%	-8%	2%	10	-1.5%	-14
Cc1ccc(-c2nc(S(=O)(=O)c3ccccc3)c(SCC(=O)NCC3CCCO3)o2)cc1 (stereo unspecified)	3	11%	-2%	-9%	-2.7	.	-5
C#CCOCCOCCOCCNc1nc(N2CCOCC2)nc(N2CCN(C(=O)[C@H](CCC(=O)O)n3cc([C@@H](N)CCCCN)nn3)CC2)n1	.	11%	10%	.	.	-0.5%	-5
COc1ccc(Cc2nnc(NC(=O)c3cccc([N+](=O)[O-])c3)s2)cc1	4	5%	-6%	-18%	0.6	0.8%	-14
CC1=C(n2ccnc2)CCC1=O	.	-7%	6%	.	.	0.9%	-3
c1ccc(CN2CCN(C(c3ccccc3)c3ccccc3)CC2)cc1	-9	50%[15.4 µM]	3%	-23%	-1.7	-3.6%	-14
CC1(C)C[C@H](O)[C@]2(CO)[C@H](O)C[C@]3(C)C(=CCC4[C@@]5(C)CC[C@H](O)C(C)(C)C5CC[C@]43C)[C@@H]2C1 (stereo partly specified)	.	26%	6%	.	.	2.2%	-13
Cc1cc(NC(=O)Cc2cn3ccsc3n2)n(-c2ccccc2)n1	3	-7%	-3%	13%	-2.9	0.1%	-14
CCc1ccccc1N(CC)C(=O)C1CCN(c2ncnc3c2nc2n3CCCCC2)CC1	-11	6%	-17%	0%	-1.5	-1.9%&1.5%	-12
CCCCN1C(=O)C(=O)N(CC(=O)Nc2ccccc2C(=O)OCC)C1=O	-15	-2%	-7%	10%	4.2	-2.1%	-6
CCCCNC(=O)NC1CCCC1	2	-38%[15.4 µM]	4%	8%	5.6	-6.9%	-2
CCc1ccc(C(=O)N/N=C/c2ccncc2)s1	-16	23%	7%	4%	-0.1	-1.2%	-13
